Biofilm kill mix – mixture kills Candida albicans biofilm cells. C. albicans biofilm persisters + clotrimazole, fluorescence viability; primary screen in compound mixtures of four per well. inhibition, % at 7.6 µM. hit rate 0.02% among 120,000. AID 1242;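 active means inhibition above 30.3% in the primary screen of four-compound pools, then above 30% when the compound was retested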;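 further: compounds exposed to preformed 24 h biofilms for 48 h; the number belongs to the whole pool; some results filed as inactive read as strong as hits; inactives centre near 12; 0% = biofilm with clotrimazole alone and 100% = kill control; retested singly at about 60 µM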
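Test system: C. albicans biofilms. Buffer or medium: RPMI/MOPS medium, pH 7.0. Timing: 48 h compound exposure at 37 °C. Technique: Alamar Blue fluorescence. Evaluation: percent inhibition of biofilm viability.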
* marks the source's active call; other numbers are inactive results; & = joins results of further samples. Only part of the results is shown. The share of hits here may be higher or lower than overall.

SMILES | Biofilm kill mix
CCCCCOc1ccc(NC(=O)c2cc(SC)ccc2Cl)cc1 | 10
C/C=C(/C)C(=O)Nc1cccc(C2=NOC3(C2)C[C@H](C(N)=O)N(C(=O)c2ccc(Cl)cc2)C3)c1 (some centres undefined) | 9
CCCC(=O)Nc1ccc(C(=O)NN2C(=O)c3ccccc3C2=O)cc1 | 7
O=C(CNc1cccc2ccccc12)N/N=C/c1ccc[nH]1 | 23
Nc1nnn(CC(=O)N/N=C/c2ccc(O)cc2)n1 | 5
Cc1nn2c(N3CCCC3)c3c(nc2c1-c1ccccc1)CCC3 | -3
CCS(=O)(=O)Nc1ccc(C2=NN(C(=O)c3ccco3)C(c3cccc(F)c3)C2)cc1 (centres undefined) | -2
CC(=O)OC1COC(OC2C(O)C(C)OC(OC3C(OC4CCC5(C)C(CCC6(C)C5CC=C5C7CC(C)(C)CCC7(C(=O)O)CCC56C)C4(C)CO)OCC(O)C3O)C2O)C(O)C1OC(C)=O (centres undefined) | 21
COc1ccc(C(=O)NC(=S)N2CC(C)OC(C)C2)cc1OC (centres undefined) | 14
CCOC(=O)c1cc(-c2cccc([N+](=O)[O-])c2)on1 | 9
Clc1ccccc1CSc1nnc([C@@H]2CCCN2)o1 | 23
CC(=O)c1c(C)oc2ccc(N(C(C)=O)S(=O)(=O)c3cccc4cccnc34)cc12 | -2
Cc1ccc(S(=O)(=O)c2cn(CC(=O)Nc3ccccc3)c3ccc(F)cc3c2=O)cc1 | 9
Cc1ccc(Nc2ncc3c(n2)CC(C)(C)CC3=O)cc1 | 19
Cc1ccc2[nH]c(=O)c(CN(CCCO)C(C)c3nnnn3Cc3ccco3)cc2c1 (centres undefined) | 22
CCOC(=O)C1CCCN(C(=O)CC(c2ccccc2)c2ccccc2)C1 (centres undefined) | 8
Cc1cc(C=O)c(C)n1-c1cccc(C(=O)O)c1 | 9
CCOC(=O)c1ccc(-n2c(CN3CCN(CCO)CC3)nc3ccc([N+](=O)[O-])cc3c2=O)cc1 | 4
O=C(Oc1cccc(O)c1)C1CCCCC1 | 4
O=C(CCc1nnc(CCCCc2ccccc2)o1)NCCc1cccnc1 | 11
C/C(=N\NC(=O)c1ccc(Cn2cc([N+](=O)[O-])cn2)o1)c1cccc(NC(=O)c2cccnc2)c1 | 11
Cc1cc(C(C)(C)C)c(O)c(C(C)(C)C)c1 | 6
COc1cc(OC)cc(C(C(=O)NC2CCCCC2)N(C(=O)c2ccno2)c2ccccc2)c1 (centres undefined) | 14
CCOC(=O)c1c(C)oc2ccc(OC(=O)COc3c(F)c(F)c(F)c(F)c3F)cc12 | 8
Oc1ccc2ccccc2c1C=Nc1ccc(Cl)cn1 | 8
SMILES | Biofilm kill mix
O=C(C[n+]1cc(-c2ccc(F)cc2)n2c1CCC2)OCc1ccccc1 | 10
COc1ccc(C(=O)OCc2csc(C)n2)c(O)c1 | 13
O=C(NC(=S)N1CCN(C/C=C/c2ccccc2)CC1)c1ccc(Cl)nc1 | 16
Cc1cc(C(=O)OCC(=O)Nc2cc(S(=O)(=O)N(C)C)ccc2C)c(C)o1 | 12
CCOC(=O)CNC(=O)c1ccc(SCC)cc1 | 7
CCc1nnc(NC(=O)c2cc(-c3ccco3)nc3ccccc23)s1 | 6
Fc1ccc(/C=N/Nc2nc3ccccc3[nH]2)cc1F | 16
O=C1N/C(=C/c2ccc(N3CCOCC3)o2)C(=O)N1c1ccccc1 | 15
Cc1ccccc1NC(=O)C(=O)Nc1ccccc1C | 2
O=C(NNc1cc(Br)c(O)c(Br)c1)c1ccccc1 | 14
CCCn1c(C)cc(C(=O)CSc2nc3nc(C)cc(C)n3n2)c1C | 14
O=C1CCN(Cc2ccccc2)CCN1CCO | 13
COc1ccc(N2CCC(CNC(=S)Nc3cc(C)ccc3C)C2)cc1 (centres undefined) | 22
O=C(O)c1ccc2c(c1)C(=O)/C(=C\c1ccco1)C2=O | -10
O=C(/C=C/c1ccc(Br)cc1)NC(=O)c1ccccc1O | 12
CN(C)c1cccc(C(=O)OCC(=O)N2CCc3ccccc3C2)c1 | -7
CC1(C)CC2(CCO1)OC(=O)CC2C(=O)Nc1ccc(Br)cc1 (centres undefined) | 13
Cc1cccc(C)c1OC(=O)CSc1nnc(-c2ccccc2)o1 | 9
COc1ccc(S(=O)(=O)Nc2cc3c(cc2C(C)=O)OCO3)cc1 | 0
O=C(O)CSc1nccc2ccccc12 | 18
O=C(NCCN1CCN(c2cccc(Cl)c2)CC1)c1ccc(CSc2nc3ccncc3[nH]2)cc1 | 11
CC(C)(C)c1ccc(C(=O)NNc2cc(Cl)cc(Cl)c2)cc1 | 12
CCOC(=O)c1c(NC(=O)C[n+]2ccc(Cc3ccccc3)cc2)sc(C)c1C | 19
O=C(c1ccc2ccccc2c1)c1c[nH]cc1-c1ccccc1 | 13
CCOC(=O)C1(Cc2ccc(Cl)cc2)CCN(CCCn2cccn2)CC1 | 15
SMILES | Biofilm kill mix
Cc1csc(SC(C)C(=O)NCC2CCCCC2)n1 (centres undefined) | 8
O=C(NC1=NCCS1)c1cc(-c2cccc(Br)c2)nc2ccccc12 | 23
Cc1cc([N+](=O)[O-])ccc1N(C)C | 12
O=C(N/N=C/c1ccccc1)c1ccco1 | 25
CCN1C(=O)c2cccc3c(S(=O)(=O)N(C(=O)c4cccnc4)c4ccc(OC)cc4)ccc1c23 | 16
CC(=O)Nc1ccc(NC(=O)COc2ccc(S(=O)(=O)NC(C)c3ccccc3)cc2)cc1 (centres undefined) | 14
O=C1/C(=C/c2ccccn2)SC(=S)N1Cc1ccccc1 | 15
CCOc1ccc(-c2nnn(CC(=O)N3CCCC3)n2)cc1OCC | 5
C=C(C)CNC(=S)N/N=C(\C)c1ccc(Cl)s1 | 3
CC(=O)Nc1cccc(OCCCNC(=O)c2ccc(C(C)(C)C)cc2)c1 | 23
CCOc1ccccc1NC(=O)C(NC(=O)C1CCC(C)CC1)C(C)C (centres undefined) | 2
CCc1ccccc1NC(=O)CN(C)C(=O)COc1ccc(C)nc1[N+](=O)[O-] | 8
Cc1ccc(NC(C)C(=O)N/N=C/c2ccc([N+](=O)[O-])s2)cc1 (centres undefined) | 21
c1ccc(SCCCCNC2CCCC2)cc1 | 10
O=S(=O)(c1ccc(N2CCN(Cc3ccc4c(c3)OCO4)CC2)nc1)N1CCOCC1 | 14
Cn1nc(C(C)(C)C)c(NC(=O)c2cccs2)c1C(C)(C)C | 20
O=C(O)c1cccc(Cn2c(Cl)c(/C=N/NC(=O)c3ccc(O)cc3)sc2=O)c1 | 10
S=C(Nc1ccc2cn[nH]c2c1)Nc1ccccc1Cl | 10
COc1ccc(-c2noc(C(=O)NCc3ccccc3Cl)n2)cc1OC | 4
CCOc1ccc(NC(=O)CCC(=O)NNC(=O)Nc2cccc(Cl)c2)cc1 | 5
O=C(NC(Cc1c[nH]c2ccccc12)C(=O)Nc1ccc(F)cc1)c1cccs1 (centres undefined) | 11
O=[N+]([O-])c1cc(F)c2cccnc2c1O | 17
O=C(Nc1ccccc1N1CCN(C(=O)c2ccccc2)CC1)c1ccc(Cl)cc1 | 10
Cc1ccc(CCNC(=O)CCc2nc3ccccc3[nH]2)cc1 | 9
O=C(Cn1nnc2ccccc21)c1ccc([N+](=O)[O-])cc1 | 18
SMILES | Biofilm kill mix
O=C(CNC(=O)c1ccco1)OCC(=O)c1ccccc1Cl | 1
C=CCc1cccc2cc(C(=O)Nc3cccc(C(=O)O)c3)c(=O)oc12 | 19
COCCn1c(C)cc(C(=O)COC(=O)c2ccccc2Br)c1C | -11
Cc1[nH]c2ccccc2c1/C=C(\C#N)C(=O)NCc1ccccc1 | 4
CCN(CC)S(=O)(=O)c1ccc(C)c(NS(=O)(=O)c2cc(/C=C/C(=O)O)cc(OC)c2OC)c1 | 13
CCOC(=O)Cn1c(=O)oc2cc(S(=O)(=O)N(C)Cc3ccccc3)ccc21 | 23
Cc1ccc(NC(=O)c2sccc2C)cc1S(=O)(=O)N(C)C | 7
CCOC(=O)c1sc(NC(=O)CCN2CCN(C)CC2)c(C(=O)OCC)c1C | 15
COCC(=O)Nc1cc(C(=O)NCC(C)C)ccc1Cl | 17
Cc1ccc(/C=C/C(=O)Nc2nnc(C)s2)o1 | -4
Cn1c(/C(C#N)=C/c2cccc(O)c2)nc2ccccc21 | -1
COc1ccc(-c2csc(/C=C/c3ccc4c(c3)OCO4)n2)cc1OC | 17
Cc1c(Cl)cccc1NC(=S)N(Cc1ccco1)C(C)c1ccccn1 (centres undefined) | 9
COc1ccc(Nc2ncc(C#N)c(N)n2)c(OC)c1 | 21
COc1ccc(CCNC(=O)C2CCN(C(=O)c3cccs3)CC2)cc1 | 5
N/C(=N\OC(=O)CCCOc1ccccc1)c1ccccc1 | 6
COc1cc(C2NC(=O)C(C#N)=C(Nc3cccc(C)c3)S2)ccc1O (centres undefined) | 21&11
COc1ccc(CNC(=O)CCCN2C(=O)c3ccccc3C2=O)cc1 | 15
OCCC1CN(Cc2cccc(OC3CCCC3)c2)CCN1Cc1ccsc1 (centres undefined) | 14
CCCN1CCC(NC(=O)Nc2ccc(Br)cc2)CC1 | 13
COc1cc(CNC2CCCCC2OC)cc(OC)c1OC (centres undefined) | 7
Cc1c(NC(=O)C2CCCO2)cccc1[N+](=O)[O-] (centres undefined) | 9
COc1ccc(CCNC(=O)c2cc(S(=O)(=O)N3CCC4(CC3)OCCO4)ccc2F)cc1OC | 19
CCCNC(=O)c1nnsc1S(=O)(=O)c1ccc(Cl)cc1 | 34*
Cc1ccc(NC(=O)COC(=O)C(NS(=O)(=O)c2ccc(Cl)cc2)C(C)O)cc1C (centres undefined) | 3

Reprinted at random: five entries already listed.
SMILES | Biofilm kill mix
CCOC(=O)c1c(C)oc2ccc(OC(=O)COc3c(F)c(F)c(F)c(F)c3F)cc12 | 8
COc1ccc(C(=O)OCc2csc(C)n2)c(O)c1 | 13
COc1ccc(Nc2ncc(C#N)c(N)n2)c(OC)c1 | 21
O=C(NC(Cc1c[nH]c2ccccc12)C(=O)Nc1ccc(F)cc1)c1cccs1 (centres undefined) | 11
CCOC(=O)C1(Cc2ccc(Cl)cc2)CCN(CCCn2cccn2)CC1 | 15

Additional compounds follow:
SMILES | Biofilm kill mix
CC(C)(C)NC(=O)NC(=O)COC(=O)c1ccc(OC(F)(F)F)cc1 | 1
CC(C)N(C(=O)COC(=O)c1cccc(C(=O)OCC(=O)N(C(C)C)C(C)C)n1)C(C)C | 8
Cc1ccc(S(=O)(=O)N2CCOCC2)cc1C(=O)NCCN1C(=O)S/C(=C\c2ccccc2Cl)C1=O | 14
CCC(=O)Nc1ccc(Cl)c(NC(=S)NC(=O)COc2ccccc2)c1 | 24
CCOc1ccc(N=C(/C(C(=O)C(=O)N2CCOCC2)=C(/O)c2ccccc2)c2ccccc2)cc1 | 9
Cc1ccc(/C=C/C(=O)OCC(=O)Nc2cccc(S(=O)(=O)N(C)C)c2)o1 | 14
S=C(NCc1ccco1)Nc1ccc(N2CCOCC2)cc1 | 4
O=C(O)CC1(CC(=O)Nc2cc(F)ccc2Cl)CCCCC1 | 21
CC1(C)CC(=O)C(C(c2ccc(F)cc2)C2C(=O)CC(C)(C)CC2=O)C(=O)C1 | 8
Cc1ccccc1C(=O)/C(C#N)=N/Nc1c(C)n(C)n(-c2ccccc2)c1=O | 26
COc1cc(NC2c3ccccc3C(=O)N2Cc2ccccc2Cl)cc(OC)c1 (centres undefined) | 23
COc1cc(SC)ccc1C(=O)N1CCN(Cc2ccccc2)CC1 | 5
Cc1cc(C)c(S(=O)(=O)c2ccc(Cl)cc2C)c(Cl)n1 | 0
S=c1[nH]nc(COc2cccc(Cl)c2)n1Cc1ccccc1 | 18
O=C(C1=NN(c2ccccc2)C2C(=O)N(c3cccc(Cl)c3)C(=O)C12)c1ccccc1 (centres undefined) | 13
Cn1cnc([N+](=O)[O-])c1Cl | 13
Cc1ccc(S(=O)(=O)NCCCC(=O)O)cc1 | 1
C#CC[N+](C)(C)CC#Cc1ccc(C)cc1 | 16
CCN(CC)C(=O)Cn1cc(S(=O)(=O)CC(=O)NC2CCCCC2)c2ccccc21 | 6
Cc1cc(C)c(OCC(=O)Nc2cccc(NC(=O)c3ccco3)c2)c(Br)c1 | 9
O=C(Cc1c(F)cccc1Cl)NCCN1CCOCC1 | 3
CCOc1cc(NC(=S)NCC2CCCO2)c(OCC)cc1NC(=O)c1ccc(F)cc1 (centres undefined) | 13
C1CCc2nc3c(nc2C1)CCCC3 | 17
C=CCc1cc(Cl)ccc1OCCOCCNC(C)CC (centres undefined) | 5
COc1ccc(CCNC(=O)CSc2nc3[nH]ncc3c(=O)n2-c2cccc(C(F)(F)F)c2)cc1OC | 18
SMILES | Biofilm kill mix
C(CNC1C2CC3CC(C2)CC1C3)CN1CCOCC1 (centres undefined) | 17
COc1ccccc1N(CC(=O)N/N=C(\C)c1cccc(Br)c1)S(C)(=O)=O | 18
COc1ccc(C(=O)N/C=C/n2cnc3cc(C(F)(F)F)ccc32)cc1 | 12
CC1=C(C(=O)OCc2ccccc2)C(c2ccc([N+](=O)[O-])cc2)NC(=O)N1CCCCCC(=O)O (centres undefined) | 17
O=C(/C=C/c1ccc([N+](=O)[O-])cc1)c1cccnc1 | 12
CN1CCN(C(=O)C2=C[C@@H](C3CCCCC3)C[C@@H](OCCCCO)O2)CC1 | 20
O=C1NC(=O)C2(COC(c3ccccc3Cl)OC2)S1 (centres undefined) | 18

7 structures out of the list, arranged by heavy-atom count, smallest number first.
SMILES | Biofilm kill mix
O=C1NC(=O)C2(COC(c3ccccc3Cl)OC2)S1 (centres undefined) | 18
O=C(CNC(=O)c1ccco1)OCC(=O)c1ccccc1Cl | 1
CCC(=O)Nc1ccc(Cl)c(NC(=S)NC(=O)COc2ccccc2)c1 | 24
COc1ccccc1N(CC(=O)N/N=C(\C)c1cccc(Br)c1)S(C)(=O)=O | 18
CCOc1ccc(NC(=O)CCC(=O)NNC(=O)Nc2cccc(Cl)c2)cc1 | 5
CCOc1cc(NC(=S)NCC2CCCO2)c(OCC)cc1NC(=O)c1ccc(F)cc1 (centres undefined) | 13
CCN1C(=O)c2cccc3c(S(=O)(=O)N(C(=O)c4cccnc4)c4ccc(OC)cc4)ccc1c23 | 16
